miR-21 reporter: qHTS Assay for Modulators of miRNAs and/orActivators of miR-21; HeLa miR-21 FLuc reporter, luciferase, 48 h; Potency, µM (titrated, usually from 38.3 µM), for the others: at the top dose reporter change, positive = more light; 340,000 tested, under 10 active; active = well fitted rising curve with a large enough effect; inconclusive = small, poorly fitted or top-dose-only effect; inactive = no such curve, though single readings can be large or run the other way;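 also: % of control where 0% means no effect; miR-21 action dims this reporter so a rising signal means less miR-21 action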
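Luminescence from a firefly luciferase reporter carrying a miR-21 binding site downstream, stably expressed under a CMV promoter in HeLa cells that make miR-21 endogenously, reports miRNA modulation after 48 h compound exposure up to approximately 40uM final.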
* marks the source's active call; other numbers are inactive results; ? = inconclusive; [ ] = another dose, or the depositor's remark. An excerpt. The share of hits here may be higher or lower than overall.

miR-21 reporter	Molecule
-1%	COc1ccc(N(C)C(=O)c2nc(-c3cccc(F)c3)n3c2CCCCC3)c(OC)c1
-3%	CCOc1ccc(-n2nc(CO)c(C(=O)NCc3ccc(Cl)cc3)n2)cc1
?	CCc1ccc(C(=O)CC2(O)C(=O)N(CCc3ccccc3)c3ccc(Br)cc32)cc1 (centres undefined)
-1%	COc1ccc(Cl)cc1NC(=O)N1CCC2(CC1)Oc1ccccc1C(=O)N2Cc1ccc(F)cc1
-2%	CCN(CC)c1cc2c(cc1F)c(=O)c(S(=O)(=O)c1cccc(C)c1)cn2C
-1%	CCOc1ccc(OCC)c(NC(=O)C2CCN(S(=O)(=O)c3ccc(Br)s3)CC2)c1
8%	COc1ccc(Cl)cc1N(C)C(=O)Cc1noc2ccc(C)cc12
20%	CC(C)Oc1ccc(CNC(=O)C(C)n2ccc3cc(S(=O)(=O)N4CCCCCC4)ccc32)cc1 (centres undefined)
0%	O=C(C1CC1)N1CCc2cc(Br)cc(S(=O)(=O)N3CCN(c4cccc(Cl)c4)CC3)c21
18%	NC(=O)CSc1nc2cc3c(cc2c(=O)n1CCCCCC(=O)NCc1ccc2c(c1)OCO2)OCO3
0%	COc1ccc(-n2nc(C(=O)O)c(=O)n(C)c2=O)cc1
3%	O=C(CSC1=Nc2ccccc2N=C(c2ccc(F)cc2)C1)NCc1ccccc1Cl
17%	CC(=O)N1CCc2c(sc(NC(=O)CSc3ccccc3)c2-c2nc3ccccc3s2)C1
-12%	CCc1ccccc1NC(=O)c1ccc2c(c1)nnn2C1CCCC1
1%	CC(C)n1cnc(S(=O)(=O)N2CCCC(C(=O)NCc3ccccc3Cl)C2)c1 (centres undefined)
1%	Cc1cccc(Nc2c(-c3ccsc3)nc3nc(C)cc(C)n23)c1
17%	Cc1ccc(NC(=O)CCCn2c3ccccc3c(=O)c3cc(C)ccc32)c(Br)c1
8%	COc1ccc(C(=O)Nc2nc3n(n2)C(c2ccc(Cl)cc2)C=C(c2ccccc2)N3)cc1OC (centres undefined)
-23%	Cc1cccc(N2CCN(C(=O)CCSCc3ccccc3F)CC2)c1C
0%	Cc1cccc(Cn2c(-c3cccc(Br)c3)nc3ccccc32)c1
-4%	CC(=O)c1cccc(Nc2c3c(nc4nc(-c5cccs5)nn24)CCCC3)c1
-6%	COc1ccc(-c2nc3nc(C)cc(N4CCN(c5cccc(C(F)(F)F)c5)CC4)n3n2)cc1
0%	CCOC(=O)N1CCC(NC(=O)c2cnn(-c3ccc(C)cc3C)c2C2CCN(C(=O)OC(C)(C)C)CC2)CC1
-40%	CCc1nn(CC(=O)Nc2ccc(C)c(F)c2)c(=O)c2cc3cc(C)ccc3n12
-7%	O=C(NCc1ccc(Cl)cc1)c1ccc2c(Cl)c3c(nc2c1)CCCC3
-1%	COc1ccc(Nc2nc3ccccc3nc2NS(=O)(=O)c2ccc(C)cc2)c(OC)c1
5%	COc1ccc(C)cc1S(=O)(=O)NCC(c1cccs1)S(=O)(=O)c1ccc(C)cc1 (centres undefined)
?	CCOc1ccccc1CNC(=O)CSc1n[nH]c(-c2ccccc2Cl)n1
1%	Cc1cccc(N2C(=O)CSC23C(=O)N(C)c2ccccc23)c1 (centres undefined)
-1%	CCOC(=O)c1ccc(NC(=O)CSc2ncc(S(=O)(=O)c3ccc(C)c(Cl)c3)c(=O)[nH]2)cc1

Given with bars between the fields: 2 of the compounds above
Molecule | miR-21 reporter
COc1ccc(C)cc1S(=O)(=O)NCC(c1cccs1)S(=O)(=O)c1ccc(C)cc1 (centres undefined) | 5%
CCOc1ccccc1CNC(=O)CSc1n[nH]c(-c2ccccc2Cl)n1 | ?

Remaining list, next part
miR-21 reporter	Molecule
20%	CCN1CCN(c2c(S(=O)(=O)c3ccc(OC)cc3)cnc3cc(OC)c(OC)cc23)CC1
-20%	Cc1ccc(S(=O)(=O)c2nnn3c2nc(N2CCCCC2)c2sccc23)cc1
1%	Cc1ccc(Cl)cc1N1CCN(S(=O)(=O)c2ccc3c(c2)CC(C)N3C(=O)C2CCC2)CC1 (centres undefined)
-17%	COc1ccc(NC(=O)c2oc3ccccc3c2NC(=O)Cc2coc3cc(C)ccc23)cc1
-2%	COc1ccc(NC(=O)CCn2cnc3onc(-c4ccc(F)cc4)c3c2=O)cc1OC
-4%	O=[N+]([O-])c1cccc(NC(=S)Nc2nc(-c3ccc(Cl)cc3Cl)cs2)c1
23%	O=C(/C=C\c1ccc2c(c1)OCO2)NC1CC(=O)N(c2ccccc2)C1 (centres undefined)
-5%	COc1cccc(-c2cn3c(n2)sc2cc(C(=O)NCc4cccs4)ccc23)c1
4%	COc1ccccc1NC(=O)C(Cc1ccccc1)NS(=O)(=O)c1ccc2c(c1)c(=O)n(C)c(=O)n2C (centres undefined)
2%	CCC(C)NC(=O)c1c(C)oc2ncn(CC(C)C)c(=O)c12 (centres undefined)
0%	Cc1ccc(C)c(CNC(=O)c2cc3ccccn3n2)c1
-3%	CCCc1noc(-c2ccc(NCc3ccccc3OC)c([N+](=O)[O-])c2)n1
-30%	COc1ccc(S(=O)(=O)NCCCO)cc1-c1nnc2c3ccccc3c(C)nn12
-3%	Cc1cccc(Cn2c(CN3CCCC(C)C3)nc3c2c(=O)n(C)c(=O)n3C)c1 (centres undefined)
10%	CCOC(=O)Cn1c(=O)n(CC2CCCO2)c2nc(-c3ccc(C)cc3)nc(C(N)=O)c21 (centres undefined)
-3%	COc1ccccc1NC(=O)c1cn(-c2ccccc2)nc1-c1ccccc1
-1%	Cc1ccc(CNC(=O)c2cc3c(=O)n4cccc(C)c4nc3s2)cc1
-11%	CCOc1ccc(-c2nc(SCC(=O)Nc3ccc4c(c3)OCCO4)c(-c3ccc(F)cc3)[nH]2)cc1
-3%	Cc1ccc(-n2c(SCc3ccccc3F)nc3[nH]ncc3c2=O)cc1C
-4%	CCOC(=O)c1c(NC(=O)c2cc(-c3ccc(Br)cc3)on2)sc(C(C)=O)c1C
4%	Cc1ccccc1-c1noc(-c2ccc(N3CCC(C)CC3)c([N+](=O)[O-])c2)n1
-35%	CCc1ccc(NS(=O)(=O)c2ccc3[nH]cc(C(=O)NCCc4ccccc4)c(=O)c3c2)cc1
19%	CCN(C(=O)CSc1nc(-c2ccccc2)no1)c1ccccc1
-3%	COc1cc(CNC(=O)c2cc3n(n2)CCCN(Cc2ccc(C)cc2)C3=O)cc(OC)c1OC
-1%	CC(=O)c1cccc(NC(=O)C(C)n2c(=O)cc(-c3ccccc3)c3c(C)nn(C)c32)c1 (centres undefined)
-8%	CCn1cc2nc(SCC(=O)Nc3cc(OC)ccc3OC)n(Cc3ccc(Cl)cc3)c(=O)c2n1
?	O=C1CN(C(=O)COc2ccc(Cl)cc2)C(c2ccc(F)cc2)c2cc(Br)ccc2N1 (centres undefined)
-21%	Cc1nnc(SCc2cc(=O)n3cccc(C)c3n2)s1
-3%	COc1ccc(C2c3c(n(C)c4ccccc34)C(=O)N2CC(=O)Nc2cc(Cl)ccc2C)cc1 (centres undefined)
2%	COc1ccc(S(=O)(=O)N2Cc3ccccc3CC2C(=O)Nc2ccc(C)cc2)cc1OC (centres undefined)

(listing goes on)
miR-21 reporter	Molecule
-8%	CCOc1ccc(CNS(=O)(=O)c2cc3c(cc2C)NC(=O)CO3)cc1OC
2%	CCOc1ccccc1NC(=O)CN1C(=O)COc2ccc(S(=O)(=O)N3CCCCCC3)cc21
-54%	COc1ccc(-c2noc(-c3cccc(OC)c3OC)n2)cc1
18%[7.66 µM]	CCCC[C@]12Cc3ccccc3C(O1)c1c(cc(-c3ccccc3)oc1=O)O2
-5%	CCCCOC(=O)c1ccc(NC(=O)CC2NCCNC2=O)cc1 (centres undefined)
-26%	Cc1cc(-c2nc3ccccc3s2)ccc1NC(=O)c1cc(Cl)ccc1Cl
-5%	CCOC(=O)CC(NC(=O)c1cc2c(=O)n3cccc(C)c3nc2s1)c1ccc(OCC(C)C)c(OC)c1 (centres undefined)
-49%	Cc1ccccc1C(=O)OCc1cc(=O)n2c(C)csc2n1
-1%	CCOc1ccc(NC(=O)CSc2nnc(-c3ccncc3)n2-c2ccccc2)cc1
-3%	CCCc1nnc(NC(=O)Cc2coc3cc(C)cc(C)c23)s1
3%	CCc1nnc(SCC(=O)Nc2cc(Cl)c(OC)cc2OC)c2cc3oc(C)cc3n12
-3%	COc1ccc(-c2cc(C)no2)cc1S(=O)(=O)N1CCCC(C)C1 (centres undefined)
-54%	Fc1ccc(NCc2ccccc2-c2nnc(-c3ccccc3Cl)o2)cc1Cl
2%	CC1=Nc2cc(C(=O)NC3CCC(C)CC3)ccc2Sc2c(C)ccc(C)c21 (centres undefined)
27%	O=C(Cn1cc(SCc2ccc(Cl)cc2)c2ccccc21)N1CCCC1
4%	Cc1oc2ccc(O)c(CN3CCOCC3)c2c1C(=O)Nc1cccc(C(F)(F)F)c1
-6%	COc1ccc(C2=C(C)C(N3CCC(C(=O)NCc4ccc(C)o4)CC3)=NS2(=O)=O)cc1
-2%	Cc1ccc(NC(=O)Cn2c(=O)n(CCCCC(=O)NCc3ccccc3Cl)c(=O)c3ccccc32)cc1
-1%	Cc1cc(=O)n(Cc2cccc(F)c2)c2c1c(C)nn2-c1cccc(F)c1
3%	Cc1c(-c2ccc(Cl)cc2)c(=O)oc2c(CN3CCN(CCO)CC3)c(O)ccc12
-8%	Cc1ccc(-n2ncc3c(N4CCN(c5ccc(F)cc5)CC4)ncnc32)cc1
10%	COc1cccc(CNC(=O)c2cc(-c3cccs3)nc3ccccc23)c1
-7%	COc1ccccc1CN1COc2ccc3c(oc(=O)c4ccccc43)c2C1
-1%	CN(Cc1ccccc1)c1ccc(-c2nc(-c3ccccn3)no2)cc1[N+](=O)[O-]
-15%	Cc1ccc(NC(=O)C(=O)NCc2ccc(Cl)cc2)cc1
-2%	COc1ccc(C(=O)NCC(c2ccc(N(C)C)cc2)N2CCOCC2)cc1 (centres undefined)
-4%	CCC(CC)C(=O)NCc1nc2cccnc2n1Cc1ccc(F)cc1
0%	Cc1ccc(S(=O)(=O)c2cn(Cc3ccccc3)c3cc(N4CCCC4)c(F)cc3c2=O)c(C)c1
-37%	Cc1nc(SCc2cccc(Cl)c2)nc2c1CCCC2
-1%	O=C(Nc1ccccc1)c1cc2c(-c3ccccc3)nn(-c3ccccc3)c2s1

Reprinted from the entries so far for reference:
miR-21 reporter	Molecule
-8%	CCOc1ccc(CNS(=O)(=O)c2cc3c(cc2C)NC(=O)CO3)cc1OC
2%	CCOc1ccccc1NC(=O)CN1C(=O)COc2ccc(S(=O)(=O)N3CCCCCC3)cc21
-54%	COc1ccc(-c2noc(-c3cccc(OC)c3OC)n2)cc1

Continuation.
miR-21 reporter	Molecule
-4%	Cc1cccc(NS(=O)(=O)c2ccc3[nH]c(=O)ccc3c2)c1C
-2%	COc1cccc2c1cc1c(=O)n(CC(=O)N3CCN(c4ccccc4)CC3)nc(C)n12
1%	Cc1ccc(OCC(=O)Nc2nonc2-c2ccc(Br)cc2)cc1
-6%	Cc1c(CNCc2ccc(OC(C)C)cc2)c(C(=O)O)c(C)n1Cc1ccc(Cl)cc1
3%	CCCS(=O)(=O)c1nc(S(=O)(=O)c2ccc(C)cc2)c(NCC(C)C)s1
4%	COc1cc2c(C(=O)N3CCN(c4cccc(C(F)(F)F)c4)CC3)cn(CC(C)C)c(=O)c2cc1OC
?	O=C(CN1C(=O)c2ccccc2S1(=O)=O)c1ccccc1Cl
4%	O=c1c(S(=O)(=O)c2ccccc2)cn(Cc2ccccc2)c2cc(N3CCOCC3)c(F)cc12
-4%	O=C(CC1C(=O)N(c2ccccc2)C(=O)N1Cc1ccc2c(c1)OCO2)Nc1ccccc1 (centres undefined)
-4%	COc1ccc(-n2c(-c3cccc(F)c3)nc3c(cnn3-c3ccc(C)cc3)c2=O)cc1
1%	CCOC(=O)Cc1ccc(NC(=O)NCc2c(-n3cccc3)sc3c2CCCC3)cc1
-12%	Cc1cc(C)cc(-n2c(C)nc3cc(C(=O)NCc4ccccc4Cl)ccc32)c1
-1%	CCOC(=O)c1cnn(-c2ccc(C(=O)Nc3cccc(C(C)=O)c3)cc2)c1N
?	CCOc1ccc(-c2cnc(NCc3ccc(C(F)(F)F)cc3)n2C)cc1
-4%	CCc1ccc(NC(=O)c2cc3c(=O)n(Cc4cccs4)ccc3nc2C)cc1
-2%	COC(=O)c1c(NC(=O)/C(C#N)=C/c2ccccc2)sc2c1CCC2
?	Cc1nn(C(C)C(=O)NCc2ccc(OC(C)C)cc2)c(=O)c2c1sc1ccccc12 (centres undefined)
2%	CC(=O)N1CCc2c(sc3c2c(=O)n(-c2cc(Cl)ccc2C)c(=O)n3C)C1
4%	COc1cccc(Cn2ccn(-c3ccc(F)cc3)c(=O)c2=O)c1
0%	CCOc1ccc(CNC(=O)C2CCN(C(=O)c3ccc(-n4ccc5ccccc54)s3)CC2)cc1
20%	COc1cccc(C2C(C(=O)Nc3ccc(Cl)cc3)=C(C)Nc3c(C(=O)Nc4ccccc4)cnn32)c1OC (centres undefined)
12%	CCN1CCN(C(=O)c2ccc3c(c2)N(Cc2ccc(F)cc2)C(=O)c2ccccc2S3(=O)=O)CC1

A different layout for 4 compounds above:
canonical_smiles: COc1cccc(C2C(C(=O)Nc3ccc(Cl)cc3)=C(C)Nc3c(C(=O)Nc4ccccc4)cnn32)c1OC (centres undefined)
  miR-21 reporter = 20%
canonical_smiles: COc1cccc(Cn2ccn(-c3ccc(F)cc3)c(=O)c2=O)c1
  miR-21 reporter = 4%
canonical_smiles: Cc1ccc(OCC(=O)Nc2nonc2-c2ccc(Br)cc2)cc1
  miR-21 reporter = 1%
canonical_smiles: Cc1c(CNCc2ccc(OC(C)C)cc2)c(C(=O)O)c(C)n1Cc1ccc(Cl)cc1
  miR-21 reporter = -6%
